High-throughput results from PubChem BioAssay.
Rango complex inh: qHTS Assay for Inhibitors of Rango (Ran-regulated importin-beta cargo) - Importin beta complex formation; Potency, µM (series often up to 92.2 µM), for the others: at the top dose inhibition of complex formation; AID 540263, 2011; 340,000 tested, 0.031% active; Importin subunit beta-1 (Homo sapiens), Q14974; Rango CFP/YFP FRET sensor + importin beta, 45 min; active = rising FRET ratio curve, often small or poorly fitted; inconclusive = mostly compound fluorescence or quenching in the first reads; inactive = flat curves in all reads;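 note: potency is the fitted concentration of half-maximal effect; 0% = DMSO wells and 100% = buffer wells lacking importin beta; nearly all actives have a fitted effect of over 15% in size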
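FRET biosensor (snurportin 1 IBB flanked by EYFP and cerulean), 50 nM, with compound 5 min, then 0.125 microM importin beta in PBS, 1 mM DTT, 0.02% Tween-20, 0.1% BSA. CFP/YFP ratio read after 45 min at room temperature; pre-read flags interference.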
Rango release inh: qHTS Assay for Inhibitors of RanGTP induced Rango (Ran-regulated importin-beta cargo) - Importin beta complex dissociation | Biochemical FRET Rango-importin beta, RanGTP-induced dissociation | Potency, µM (titrated, usually from 46.1 µM), without a hit: at the highest dose activity change, negative = inhibition | 340,000 tested, 0.071% active; active means falling FRET ratio curve, often poorly fitted, with flat reads before Ran was added; inconclusive means other falling curves, or compound fluorescence or quenching; inactive means flat or rising ratio curve;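 note: potency is the fitted concentration of half-maximal effect; % of control where 0% means no effect; nearly all actives have a fitted effect of over 45% in size; -100% = wells without RanGTP and RCC1; the record marks most hits as doubtful in a second field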
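Recombinant Rango FRET biosensor (EYFP–snurportin 1 IBB–cerulean CFP10) at 0.1 uM premixed with 0.25 uM importin beta in PBS, 1 mM DTT, 0.02% Tween-20, 0.1% BSA. Compound added 5 min; RanGTP-RCC1 (0.6 uM Ran, 2 mM GTP, 0.2 uM RCC1) then triggers release, read at 45 min.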
miR-21 reporter: qHTS Assay for Modulators of miRNAs and/orActivators of miR-21. 340,000 tested, under 10 active. HeLa miR-21 FLuc reporter, luciferase, 48 h. Potency, µM (top dose mostly 38.3 µM), for the others: at the top dose reporter change, positive = more light; active = well fitted rising curve with a large enough effect; inconclusive = small, poorly fitted or top-dose-only effect; inactive = no such curve, though single readings can be large or run the other way;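 note: % of control where 0% means no effect; miR-21 action dims this reporter so a rising signal means less miR-21 action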
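Compounds were titrated across several concentrations (up to approximately 40 uM) and incubated 48 hours with HeLa miR-21-FLuc reporter cells (miR-21 target sequence downstream of FLuc, endogenous miR-21). Readout was firefly luciferase luminescence after lytic detection reagent.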
GLA inh pH 4.5: qHTS Assay for Inhibitors of Human alpha-Galactosidase at pH 4.5; 230,000 tested, under 10 active; purified enzyme, 4-MU-alpha-Gal fluorescence, pH 4.5; activity change, negative = inhibition, % at 105 µM; AID 1467, 2008; inconclusive = small, poorly fitted or top-dose-only inhibition, or a rising curve; inactive = flat fitted curve, though single readings scatter; no compound was filed as active;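 note: 0% = full activity with enzyme and -100% = basal without enzyme; dose as in the result columns while the protocol names 77 µM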
Target sequence (P06280 whole entry, looked up): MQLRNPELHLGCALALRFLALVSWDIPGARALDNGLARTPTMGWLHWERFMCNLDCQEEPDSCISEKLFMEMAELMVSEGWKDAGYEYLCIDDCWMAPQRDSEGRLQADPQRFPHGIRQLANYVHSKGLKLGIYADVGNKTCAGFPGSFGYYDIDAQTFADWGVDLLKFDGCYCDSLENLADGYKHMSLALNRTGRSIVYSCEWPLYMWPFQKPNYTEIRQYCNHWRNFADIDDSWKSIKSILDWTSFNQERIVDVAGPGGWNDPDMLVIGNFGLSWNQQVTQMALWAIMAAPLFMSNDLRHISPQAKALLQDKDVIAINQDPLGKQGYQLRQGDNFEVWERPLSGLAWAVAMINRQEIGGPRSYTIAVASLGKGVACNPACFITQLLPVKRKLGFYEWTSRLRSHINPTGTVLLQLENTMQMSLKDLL
* marks the source's active call; other numbers are inactive results; ? = inconclusive; / = not tested or not shown. This is a subset; rates above refer to the full screens.

#1 CCCn1c(=O)c2c(C(F)(F)F)cc(-c3ccco3)nc2n(CCC)c1=O
#2 COCCn1c(N)c(Sc2ccccc2)c(=O)[nH]c1=O
#3 Cc1sc(N)c(C#N)c1C
#4 O=C(CCNC(=O)c1ccccc1Cl)Nc1cccc(S(=O)(=O)N2CCOCC2)c1
#5 O=C1CC(c2ccccc2)n2nc(NS(=O)(=O)c3ccccc3)nc2N1 (stereo not given)
#6 COc1cccc(Cn2nnc3c(=O)[nH]c(C4CCCN(C(=O)c5ccccc5Cl)C4)nc32)c1 (stereo not given)
#7 CC(=O)Nc1ccc(C(=O)Nc2nc(-c3cc(C)n(Cc4ccccc4)c3C)cs2)cc1
#8 COc1ccc(C(=O)COC(=O)COc2cccc3c2OC(C)(C)C3)c(OC)c1
Compound,1,2,3,4,5,6,7,8
miR-21 reporter,-6.0%,3.3%,-1.8%,/,2.6%,-15.3%,-9.9%,/
GLA inh pH 4.5,13.2,/,-2.5,/,-12.7,-27.9,-0.5,/
Rango release inh,?,-0.2%,1.3%,1.7%,-16.3%,-3.1%,-4.3%,9.5%
Rango complex inh,-0.1%,-2.4%,6.1%,0.9%,0.3%,4.2%,-1.7%,-1.6%

#9 COc1ccc(N2CCN(C(=O)c3ccc(Cn4nc(C)c([N+](=O)[O-])c4C)o3)CC2)cc1
#10 CCc1nc2ccccc2c(C(=O)OCC(=O)N(CC(C)C)c2c(N)n(Cc3ccccc3)c(=O)[nH]c2=O)c1C
#11 COc1cc(/C=N/n2c(COc3ccccc3)n[nH]c2=S)cc(OC)c1OC(C)=O
#12 CC[C@H](C)[C@H](NC(N)=O)C(=O)Nc1ccccc1F
#13 CC(C)C[C@H]1CNC(=S)N1CC1CCN(CCCC2CCCCC2)CC1
#14 CC(=O)NCC(=O)N(c1ccccc1)C1(C(=O)NC2CCCCC2)CCCCC1
#15 Cc1cc(OCC(=O)NCc2nc(-c3ccccc3)no2)c(C)cc1Br
#16 CCOC(=O)CNC(=O)c1cnn2cccnc12
Compound,9,10,11,12,13,14,15,16
miR-21 reporter,3.1%,/,-15.8%,-2.7%,/,-5.4%,-3.3%,-25.4%
GLA inh pH 4.5,/,/,/,7.3,/,22.5,4.6,-7.2
Rango release inh,-2.5%,-2.3%,?,-8.9%,-12.3%,-7.0%,-14.8%,6.5%
Rango complex inh,3.9%,-0.9%,1.3%,0.1%,0.0%,-1.3%,?,-2.0%

#17 COc1ccc2c(COC(=O)CNC(=O)C34CC5CC(CC(C5)C3)C4)cc(=O)oc2c1
#18 CN(C(=O)c1ccc2c(=O)n3c(nc2c1)CCCCC3)c1ccccc1
#19 COc1ccc(CNC(=O)CN(C(=O)c2snc(C(N)=O)c2N)c2ccc(OC)c(OC)c2)cc1
#20 COc1ccccc1-n1c(SCC(=O)N2CCCCC2)nnc1-c1ccccc1O
#21 CC(C(=O)NCCS(=O)(=O)c1ccc(Cl)cc1)S(=O)(=O)c1ccccc1 (stereo not given)
#22 COc1cc(/C=N/OCC(=O)Nc2cc(C)on2)ccc1OCc1ccccc1
#23 CCC(C)(C)NC(=O)C(c1cccn1C)N(C(=O)Cn1nnc2ccccc21)c1ccc(F)cc1 (stereo not given)
#24 O=C(O)CCCC(=O)NCCCCc1ccccc1
Compound,17,18,19,20,21,22,23,24
miR-21 reporter,-8.5%,-11.8%,4.1%,0.4%,3.9%,-18.8%,-0.6%,-6.6%
GLA inh pH 4.5,10.9,-6.6,/,1.0,-14.6,4.5,0.1,3.6
Rango release inh,14.5%,-5.2%,-2.0%,18.4%,-9.0%,24.0%,-9.1%,7.2%
Rango complex inh,-2.1%,-0.4%,?,-2.8%,0.5%,?,-4.0%,4.7%

#25 COc1ccccc1Nc1nc(N2CCCC2)nc(N2CCOCC2)n1
#26 Cc1ccc(S(=O)(=O)N2CCN(C(=O)C(C)Cn3cncn3)CC2)cc1 (stereo not given)
#27 CC(C)(C)C(=O)Nc1ccc(N2CCN(S(C)(=O)=O)CC2)cc1
#28 O=C(Cn1c(-c2ccc(Cl)cc2)noc1=O)N1CCN(c2ccccc2F)CC1
#29 COC(=O)CSc1nc(C(C)C)nc2ccccc12
#30 O=C1c2ccccc2NC(c2ccccc2Br)N1CCCN1CCOCC1 (stereo not given)
#31 CC1C(=O)c2ccccc2CC1C(=O)O (stereo not given)
#32 Cc1cccc(NC(=S)NCc2ccncc2)c1C
Compound,25,26,27,28,29,30,31,32
miR-21 reporter,/,9.7%,-1.2%,0.2%,-5.6%,-8.3%,/,-0.5%
GLA inh pH 4.5,/,/,0.2,-2.8,-14.2,3.5,/,-2.4
Rango release inh,-2.4%,2.4%,-9.7%,10.1%,-9.3%,1.8%,22.5%,7.9%
Rango complex inh,-0.8%,4.2%,-1.4%,2.5%,-0.8%,0.7%,4.4%,5.8%

#33 CCCCCC(=O)N/N=C/c1ccco1
#34 Cc1nc2cc(-c3ccc(Cl)cc3)nn2c(C)c1CCC(=O)NCc1ccco1
#35 Cc1ccc2c(c1)sc(=NC(=O)C1CC1)n2C
#36 CCOC(=O)c1cncc(C#CCO)c1
#37 CC(=O)N1CCC(N(CCN2CCOCC2)C(=S)Nc2cccc(C)c2C)CC1
#38 CSc1ccc(CNC(=O)C2CCC(=O)N(CCc3cccc(F)c3)C2)cc1 (stereo not given)
#39 CCOC(=O)C1CCCN(C(=O)c2cc(-c3ccc(F)cc3)nc3ccccc23)C1 (stereo not given)
#40 CNc1csc(C)c(C)c1=O
Compound,33,34,35,36,37,38,39,40
miR-21 reporter,-11.3%,-11.7%,-47.1%,1.8%,-7.2%,0.1%,-3.0%,-4.3%
GLA inh pH 4.5,6.4,2.3,1.4,-2.2,-3.8,/,-2.7,7.7
Rango release inh,5.5%,-1.1%,1.8%,6.4%,-21.5%,0.1%,0.7%,1.0%
Rango complex inh,-1.5%,2.3%,0.6%,5.7%,-6.6%,-1.3%,2.7%,0.6%

#41 CC1(C)CC(=O)C=C(Nc2ccc(S(N)(=O)=O)cc2)C1
#42 O=C(CCNC(=O)c1ccccc1)Nc1cccnc1
#43 COc1ccc(CNS(=O)(=O)CCNCCc2ccccc2)cc1
#44 OCC[C@H]1C[C@H](O)[C@@H](O)[C@@]2(CCCc3ccccc3O2)O1
#45 COCCNC(=S)N1CCC(C(=O)c2ccc(F)cc2)CC1
#46 COc1ccc(/C=C(\C#N)C(=O)OC2CCOC2=O)cc1 (stereo not given)
#47 O=C(CCNC(=O)c1ccccc1Cl)NN1C(=O)NC2(CCCCC2)C1=O
#48 COc1ccc(C2(C(=O)Nc3ccc(C(=O)N4CCOCC4)cc3)CCOCC2)cc1
Compound,41,42,43,44,45,46,47,48
miR-21 reporter,-2.3%,-0.2%,/,/,/,-30.2%,/,-2.1%
GLA inh pH 4.5,-2.0,6.0,/,/,/,-5.2,/,-0.7
Rango release inh,-6.8%,-7.5%,-0.9%,-4.0%,1.5%,-2.0%,0.7%,2.6%
Rango complex inh,-1.2%,0.3%,-4.5%,0.4%,-1.3%,1.1%,-6.5%,2.4%

#49 Cc1cc(C)nc(NC(=O)Nc2ccc(F)cc2F)n1
#50 CCOC(=O)c1ccc(NC(=S)NCCc2ccc(F)cc2)cc1
#51 O=[N+]([O-])c1cc(Cl)ccc1-c1nc(-c2ccncc2)no1
#52 Cn1c(=O)c2c([nH]c(OCc3ccc(Cl)cc3Cl)[n+]2Cc2ccc(F)cc2)n(C)c1=O
#53 Cc1noc(NS(=O)(=O)c2ccc(NC(=O)c3ccc(N4C(=O)c5ccccc5C4=O)cc3)cc2)c1C
#54 O=[N+]([O-])c1ccc(NNC(=S)Nc2ccc(F)cc2)cc1
#55 O=C(O)C1CSC2(c3ccc4c(c3)OCCO4)CCC(=O)N12 (stereo not given)
#56 Cc1cc(-c2cccs2)c(C#N)c(=S)[nH]1
Compound,49,50,51,52,53,54,55,56
miR-21 reporter,-29.6%,8.9%,-40.2%,-1.6%,-1.9%,14.6%,-4.3%,-8.2%
GLA inh pH 4.5,/,-2.2,0.9,0.7,11.4,-4.1,3.6,-3.9
Rango release inh,1.5%,?,8.2%,-11.7%,5.1%,-29.7%,-18.8%,-7.9%
Rango complex inh,5.5%,-2.2%,4.3%,-0.1%,-4.5%,-4.1%,-1.7%,5.4%

#57 Cc1cccc(N2CC(C)Cn3c2nc2c3c(=O)n(CC(=O)OCc3ccccc3)c(=O)n2C)c1 (stereo not given)
#58 Cc1cccc(N(Cc2ccccc2)C(=O)CCl)c1
#59 Cc1nc2ccccc2n1C(=O)c1ccc(Cl)cc1[N+](=O)[O-]
#60 Cc1cc(S(=O)(=O)N2CCOCC2)ccc1NC(=O)c1ccc(F)cc1
#61 CCOC(=O)C1CCN(C(=O)c2cc3ccc(OC)cc3[nH]2)CC1
#62 CCS(=O)(=O)c1ccc2oc(SCC(=O)NCCC3=CCCCC3)nc2c1
#63 CN1CCc2ccccc2CC1=O
#64 CCCCCOc1ccc(/C(C)=N/NC2=NCCN2)cc1
Compound,57,58,59,60,61,62,63,64
miR-21 reporter,3.1%,?,1.7%,-1.4%,-32.5%,1.3%,0.1%,-15.1%
GLA inh pH 4.5,-7.6,-2.6,0.2,/,/,-11.2,1.6,/
Rango release inh,11.4%,-3.8%,-4.0%,-4.8%,1.0%,-13.5%,11.7%,3.2%
Rango complex inh,-1.7%,-0.1%,2.2%,2.0%,-1.9%,-1.8%,0.6%,0.7%

#65 CCOC(=O)C(N)CSC1CC(=O)N(CCc2ccccc2)C1=O (stereo not given)
#66 N=c1nc(SCCC(=O)O)ss1
#67 CCN1C[C@@H]2[C@@H]3C(=O)N(Cc4ccccc4)C(=O)[C@@H]3[C@](CC)(C(=O)OC)N2C1=NC1CCCCC1
#68 Cc1ccc2cc(CN(CC(C)C)S(=O)(=O)c3cccc4nonc34)c(=O)[nH]c2c1
#69 COc1ccc(-c2ocnc2C(=O)Nc2ccc3c(c2)CCC3)cc1
#70 Cc1ccc(NC(=O)COC(=O)c2ccccc2Cl)cc1S(=O)(=O)N(C)C
#71 Cc1occc1C(=O)N/N=C/c1sc(N2CCOCC2)nc1-c1ccccc1
#72 CCCNC(=O)c1csc2c1CCCCC2
Compound,65,66,67,68,69,70,71,72
miR-21 reporter,-2.7%,15.5%,/,0.6%,-5.7%,4.5%,13.6%,-12.6%
GLA inh pH 4.5,/,6.5,/,/,/,-10.1,-8.2,1.5
Rango release inh,0.6%,-0.2%,-1.4%,9.2%,1.1%,8.9%,0.7%,4.8%
Rango complex inh,7.5%,3.3%,1.5%,-1.9%,-2.5%,2.2%,3.0%,4.0%

In another format: entries from further up.
69) COc1ccc(-c2ocnc2C(=O)Nc2ccc3c(c2)CCC3)cc1
  miR-21 reporter = -5.7%	GLA inh pH 4.5 = /	Rango release inh = 1.1%	Rango complex inh = -2.5%

70) Cc1ccc(NC(=O)COC(=O)c2ccccc2Cl)cc1S(=O)(=O)N(C)C
  miR-21 reporter = 4.5%	GLA inh pH 4.5 = -10.1	Rango release inh = 8.9%	Rango complex inh = 2.2%

71) Cc1occc1C(=O)N/N=C/c1sc(N2CCOCC2)nc1-c1ccccc1
  miR-21 reporter = 13.6%	GLA inh pH 4.5 = -8.2	Rango release inh = 0.7%	Rango complex inh = 3.0%

72) CCCNC(=O)c1csc2c1CCCCC2
  miR-21 reporter = -12.6%	GLA inh pH 4.5 = 1.5	Rango release inh = 4.8%	Rango complex inh = 4.0%
